Compound activity deposited in PubChem by Johns Hopkins Ion Channel Center.
KCNQ2 inh: KCNQ2 channel blockers in CHO-K1 cells – cell-based, FluxOR thallium flux, B-score, primary screen (AID 2156) | O88943 | 20 min; active compounds read low; only compounds with negative scores are shown here; some inactives read as strong as hits | B-score at 10 µM | 310,000 compounds, 1.1% hits;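 active means fluorescence ratio B-score at most minus 3 library SDs, with starting brightness B-score within 2 library SDs, cut at about -5.5 in these data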
Target sequence (O88943 whole entry, looked up): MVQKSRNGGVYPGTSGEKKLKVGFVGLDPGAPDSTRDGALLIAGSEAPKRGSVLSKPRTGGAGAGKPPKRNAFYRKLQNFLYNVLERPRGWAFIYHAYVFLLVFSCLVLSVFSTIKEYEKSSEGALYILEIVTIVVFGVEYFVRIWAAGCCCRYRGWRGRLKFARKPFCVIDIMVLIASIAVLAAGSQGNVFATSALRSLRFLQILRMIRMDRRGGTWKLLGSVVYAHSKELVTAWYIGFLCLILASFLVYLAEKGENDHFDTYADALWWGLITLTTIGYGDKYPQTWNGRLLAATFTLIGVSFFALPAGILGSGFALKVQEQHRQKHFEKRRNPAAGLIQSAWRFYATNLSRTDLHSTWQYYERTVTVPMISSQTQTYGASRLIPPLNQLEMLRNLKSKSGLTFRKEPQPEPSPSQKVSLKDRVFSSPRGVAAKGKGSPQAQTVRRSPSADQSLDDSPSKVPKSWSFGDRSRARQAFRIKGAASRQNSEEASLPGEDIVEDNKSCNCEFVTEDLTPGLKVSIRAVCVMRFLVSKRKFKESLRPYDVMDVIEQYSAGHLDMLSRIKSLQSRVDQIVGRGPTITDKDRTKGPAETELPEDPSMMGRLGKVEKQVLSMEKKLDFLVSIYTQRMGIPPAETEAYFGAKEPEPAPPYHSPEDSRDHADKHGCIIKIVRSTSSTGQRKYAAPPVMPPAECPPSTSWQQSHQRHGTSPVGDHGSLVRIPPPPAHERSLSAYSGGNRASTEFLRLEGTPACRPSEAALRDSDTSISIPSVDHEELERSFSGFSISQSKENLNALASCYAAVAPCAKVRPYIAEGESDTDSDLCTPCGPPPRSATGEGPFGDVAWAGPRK
KCNQ2 inh baseline: recorded beside KCNQ2 inh, whose call it bears; B-score; measured here: initial fluorescence intensity artifact check;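 brightness before thallium and not channel activity; 0 = typical well and far values either way flag optical interference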
* hit, by the source's call; i = inactive. A portion of the library, so the mix of outcomes need not match the whole.

Values run as follows: KCNQ2 inh, KCNQ2 inh baseline
Cc1ccc(C(C(=O)NCc2ccco2)N(C(=O)CNC(=O)c2cccs2)c2ccc(C)cc2C)cc1 (stereo not drawn)
    i, 1.9
COc1ccc(NC(=O)CN2C(=O)CSc3ncccc32)cc1
    i, -1.3
COc1cccc(NC(=O)Nc2cccc(C)n2)c1
    i, 0.24
COc1cc(Br)c(S(=O)(=O)Nc2c(C)n(C)n(-c3ccccc3)c2=O)cc1OC
    i, 1.5
CC(C(=O)N1CCc2ccccc21)N1CCN(c2cccc(C(F)(F)F)c2)CC1 (stereo not drawn)
    i, -0.06
NS(=O)(=O)c1ccc(CCNC(=O)C(=O)Nc2cc3c4c(c2)CC(=O)N4CCC3)cc1
    i, 2.7
O=C(NCc1cccc(C(F)(F)F)c1)C1CC(c2ccccc2F)=NO1 (stereo not drawn)
    i, 0.06
O=C(NC1CCCCC1)C(c1cccs1)N(Cc1cccs1)C(=O)c1cccs1 (stereo not drawn)
    i, -0.19
CCOC(=O)C(CC)n1cnc2c(nnn2-c2ccc(OC)cc2)c1=O (stereo not drawn)
    i, -0.79
Cc1cccc([C@@H]2[C@@H]3C(=O)N(Cc4ccccc4)C(=O)[C@@H]3[C@]3(C)C(=O)N(c4ccc(Br)cc4)C(=O)N23)c1
    i, 1.6
N=c1c2c3c(sc2ncn1CCCN1CCOCC1)CCCCC3
    i, -0.55
CCOC(=O)C1Cn2c(nc3c(c2=O)C(C)(C)Cc2ccccc2-3)S1 (stereo not drawn)
    i, -0.03
CCOc1cc(NC(=O)c2ccco2)c(OCC)cc1NC(=O)c1cc(OC)c(OC)c(OC)c1
    i, -0.79
NS(=O)(=O)c1cccc(NS(=O)(=O)c2ccc(/C=C/C(=O)O)cc2)c1
    i, 3.1
Nc1ccccc1OCCOCCOc1ccccc1N
    i, 0.47
CC(C)(C)NC(=O)COC(=O)C1c2ccccc2Oc2ccccc21
    -5.7*, -1.4*
CCOC(=O)c1cnn(-c2c(Cc3ccccc3)c(C)nc3c(-c4ccccc4)c(C)nn23)c1N
    i, 0.68
COc1ccc(Nc2nc3ccccc3c(=O)[nH]2)cc1
    i, -0.1
Cc1ccccc1NS(=O)(=O)c1cc(C(=O)Nc2ccccc2-c2ccccc2)ccc1Cl
    i, -0.12
CN1/C(=C\C(=O)c2cccc([N+](=O)[O-])c2)Sc2ccccc21
    i, -0.41

6 entries from above, ordered by the value under KCNQ2 inh baseline, high to low.
Compound	KCNQ2 inh	KCNQ2 inh baseline
CCOC(=O)c1cnn(-c2c(Cc3ccccc3)c(C)nc3c(-c4ccccc4)c(C)nn23)c1N	i	0.68
Nc1ccccc1OCCOCCOc1ccccc1N	i	0.47
COc1cccc(NC(=O)Nc2cccc(C)n2)c1	i	0.24
O=C(NCc1cccc(C(F)(F)F)c1)C1CC(c2ccccc2F)=NO1 (stereo not drawn)	i	0.06
N=c1c2c3c(sc2ncn1CCCN1CCOCC1)CCCCC3	i	-0.55
CCOC(=O)C(CC)n1cnc2c(nnn2-c2ccc(OC)cc2)c1=O (stereo not drawn)	i	-0.79

(continued)
Values run as follows: KCNQ2 inh, KCNQ2 inh baseline
O=C(O)c1ccc(Nc2ccc3nonc3c2[N+](=O)[O-])cc1
    i, 0.32
CCOC(=O)c1cnc(-c2ccccc2)nc1Oc1ccc(Cl)c(Cl)c1
    i, 1.2
CC(=O)Nc1ccc2nc(NC(=O)c3ccco3)sc2c1
    i, 1.1
CCN(CC)S(=O)(=O)c1ccc2oc(SCC(=O)NCc3ccccc3)nc2c1
    i, -0.64
COc1ccc(C2C(C(=O)N3CCN(c4ccccn4)CC3)CCC(=O)N2c2cc(OC)c(OC)c(OC)c2)cc1 (stereo not drawn)
    i, 0.38
COc1ccc(COc2cccnc2N)cc1
    i, -0.31
O=C(OCC(=O)N1CCCC1=O)c1cccc([N+](=O)[O-])c1
    i, -2
O=C(Nc1ccc2c(c1)OCO2)C(c1ccc(Cl)cc1)N1CCN(C(=O)c2ccco2)CC1 (stereo not drawn)
    i, -0.42
Cc1ccc(Nc2cc(C)c3ccc(O)cc3n2)cc1C
    i, 0.56
CC(C)(C)c1cc2cccnc2n1Cc1ccccc1
    i, 0.07
O=C(CN1CCOCC1)NN1CC(=O)N(c2ccc(Cl)cc2)CC1=O
    i, 0.04
CCNC(=O)COC(=O)c1ccc(-n2nc(C)cc2C)cc1
    i, 2.8
CC1CCN(c2nc(CN3CCCCC3)nc3scc(-c4ccccc4)c23)CC1
    i, -0.72
COC(/C(=N/O)c1ccc(Cl)cc1)c1ccccc1 (stereo not drawn)
    i, -0.35
C(=N\Nc1nc(Nc2ccccc2)nc(N2CCOCC2)n1)/c1c[nH]c2ccccc12
    i, -1.9
O=C(CSc1nnc(-c2ccccn2)n1Cc1ccccc1)N1CCOCC1
    i, -1.1
C=CCn1c(C)cc(-c2csc(NC(=O)CCc3nc4ccccc4c(=O)[nH]3)n2)c1C
    i, -0.49
Cc1ccc(N2CCN(C(=S)Nc3ccccc3)CC2)cc1
    i, 0.11
Cc1cccc(NC(=O)C(C)n2cc([N+](=O)[O-])cn2)n1 (stereo not drawn)
    i, 0.54
CC(=O)c1cccc(OCC(O)CNCCOc2ccc(C)cc2)c1 (stereo not drawn)
    i, 0.41
Nc1c(C(=O)NCCN2CCOCC2)c2nc3ccccc3nc2n1CCc1ccccc1F
    i, -0.1
Cc1ccc(C(=O)OCC(=O)N(C)c2c(N)n(Cc3ccccc3)c(=O)[nH]c2=O)s1
    i, -2.1
COc1ccc(NCC(=O)N2CCCC2)cc1Cl
    i, 0.2
O=C(OCc1cc(=O)oc2cc(O)ccc12)c1cc(S(=O)(=O)N2CCOCC2)ccc1F
    i, 0.82
CC(C)CCN1CCN(Cc2cccc(C(F)(F)F)c2)CC1CCO (stereo not drawn)
    i, 1.3
Cc1ccc(CN(C(=O)C(F)(F)F)C(C(=O)NC2CCCCC2)c2ccco2)cc1 (stereo not drawn)
    i, -3.3
CC(CC(=O)Nc1ccc(F)cc1F)S(=O)(=O)c1ccc2c(c1)NC(=O)CO2 (stereo not drawn)
    i, -0.36
Cc1ccc(CC(=O)c2ccc(Cl)cc2)cc1
    i, -0.23
COc1ccccc1/C=N/NC(=Nc1ccc(C)cc1)c1nc2ccccc2s1
    i, -0.77
CCOc1ccc(-c2cc(CCCC(=O)NCc3ccc(C)cc3)no2)cc1
    i, -2.9
O=C(O)CCCn1cc(NC(=O)c2ccc(F)cc2)cn1
    i, 1.2
COc1ccccc1C(=O)C1CCCN(C(=O)c2cccc(-n3cccn3)c2)C1 (stereo not drawn)
    i, 2
O=C(NC1CCCCC1)C(c1ccc2ncccc2c1)N(Cc1ccc(F)cc1)C(=O)c1ccc2c(c1)OCCO2 (stereo not drawn)
    i, 1.4
O=C(CN1CCCN(Cc2ccc(F)cc2Cl)C1=O)NC1CCCCCC1
    i, -0.4
CCC1Sc2ccccc2N(CC(=O)NCc2ccccc2OC)C1=O (stereo not drawn)
    i, -0.84
O=C1CSC(=S)N1/N=C/c1c(F)cccc1F
    i, 0.11
O=C(Oc1cncc(Cl)c1)c1sccc1Cl
    i, 2
COc1ccc(OC)c(CCNC(=O)C(C)n2nc(C)c3c(C)n(-c4ccc(C)cc4)nc3c2=O)c1 (stereo not drawn)
    i, -0.64
CC1(C)CC(=O)C2=C(C1)NC(=O)CC2C(=O)NCc1ccc(F)cc1 (stereo not drawn)
    i, -1.6
CC(O)(c1ccccc1)C(c1ccccc1)C1CCCCN1 (stereo not drawn)
    i, -0.51
Cc1ccc(N2C(=O)[C@@H]3[C@H](C2=O)C2c4ccccc4C=CN2[C@@H]3C(=O)c2ccco2)c(C)c1 (stereo partly drawn)
    -6.4*, -0.01*
CC12CCCC[C@@H]1CCC1C2CCC2(C)C1CC[C@@]2(O)CNCCO (stereo partly drawn)
    i, -2.1
O=C(NCC1CCCN(C2Cc3ccccc3C2)C1)c1cccs1 (stereo not drawn)
    i, -2.1
CCOC(=O)N=Nc1c(O)n(CC(=O)OC)c2ccccc12
    i, 1.7
Cc1ccc(C(=O)N/C(=C\c2ccccc2)C(=O)OCc2ccccc2)cc1
    i, -0.11
Fc1ccc(N2CCN(Cc3cn[nH]c3-c3ccccc3)CC2)cc1
    i, 1.5
CCOC(=O)c1cc2c(ccn2C)n1CC(=O)N1CCN(c2ccc(F)cc2)CC1
    i, -1.2
S=C(NCc1ccco1)N1CCN(Cc2ccc(Cl)cc2Cl)CC1
    i, -0.24
COc1ccc(OC(=O)CN2C(=O)C3C4CCC(C4)C3C2=O)cc1 (stereo not drawn)
    i, -2.5
Cc1cc(N/N=C/c2cccc(F)c2)nc(NCc2ccccc2)n1
    i, -1.4
CC(=O)c1cccc(NC(=O)N2CCCC2C(=O)Nc2ccccc2C)c1 (stereo not drawn)
    i, -0.85
COc1ccc([C@@H]2[C@@H]3C(=O)N(C(C)(C)C)C(=O)[C@@H]3[C@]3(C)C(=O)N(c4ccc(C)cc4)C(=O)N23)cc1
    i, 1.2
Cc1cc(F)c(F)c(C(=O)N2C(C)CCCC2C)c1Cl (stereo not drawn)
    i, -2
CCOC(=O)c1cc(-c2ccc(F)cc2)nc2c1c(=O)[nH]c(=O)n2Cc1ccccc1
    i, 0.35
C[C@@H]1C(=O)O[C@H]2C[C@@]34[C@H]5C[C@@H](C(C)(C)C)[C@]36[C@@H](OC(=O)[C@@H]6O)O[C@@]4(C(=O)O5)[C@]21O
    i, -1.4
COc1ccc(NC(=O)c2cccnc2Nc2ccc(OC)cc2)cc1
    i, -0.47
c1ccc(CNc2nc(-c3cccs3)nc3ccccc23)nc1
    i, -1.1
O=C(CN1C(=O)S/C(=C\c2cccc(Cl)c2)C1=O)NC1C=CS(=O)(=O)C1 (stereo not drawn)
    i, -2.5
COCCCNC(=O)CS(=O)(=O)Cc1nc(-c2ccccc2C)oc1C
    i, 2.2
CONC(=O)Nc1ccccc1[N+](=O)[O-]
    i, 0.19

Carrying on.
Values run as follows: KCNQ2 inh, KCNQ2 inh baseline
COc1ccc(N(C2CSC2)S(=O)(=O)c2ccccc2)cc1
    i, -0.24
Cn1cccc1Cc1nnc(SCC(=O)Nc2ccc(F)cc2)n1-c1ccc(F)cc1
    i, -1
Cc1cc(NC(=O)COC(=O)[C@H](Cc2c[nH]c3ccccc23)NC(=O)c2ccc(F)cc2)no1
    -7.2*, 0.48*
CC(=O)c1cc(-c2nc3ccccc3n2C)n(C)c1
    i, -0.01
Cc1cccc(S(=O)(=O)Nc2ccc(-c3nc4ccc(C)cc4s3)cc2)c1
    i, -0.01
COC(=O)[C@H]1Cc2c([nH]c3ccccc23)[C@H](c2ccccc2)N1
    i, 0.11
Cc1ccc(S(=O)(=O)N2CCCCC2)cc1C(=O)N(C)CCOc1ccccc1
    i, -0.38
Cc1ccccc1Cn1ccc(NC(=O)c2nn3cccnc3c2Cl)n1
    i, 0.45
COc1ccc(Nc2nc(C)c3ccccc3n2)cc1
    i, -1.4
Cn1c(=O)n(CC(N)=O)c2ccccc21
    i, -2.1
O=C(O/N=C\c1ccc(N2CCCCC2)c([N+](=O)[O-])c1)c1cccc(C(F)(F)F)c1
    i, -1.2
CS(=O)(=O)c1ccc(S(=O)CC(=O)Oc2ccc(Cl)cc2)c([N+](=O)[O-])c1 (stereo not drawn)
    i, -0.32
OC(CNC1CCCC1)COCCOc1ccc(Br)cc1 (stereo not drawn)
    i, -0.04
Cc1ccc(Cl)c(OCCCN(C)Cc2ccccc2)c1
    i, 0.01
CCOc1ccc2nc(NCCCNC(=O)c3cc(OC)c(OC)c(OC)c3)c(C#N)cc2c1
    i, 3.6
COC(=O)C(NC(=O)C(CC(C)C)NC(=O)C1CCC(C)CC1)C(C)C (stereo not drawn)
    i, -0.95
O=c1c2cc(NC(=S)N3CCCC3)ccc2nc2n1CCCCC2
    i, 0.2
O=C1COc2ccc(C(=O)COC(=O)/C=C/c3cccc(F)c3)cc2N1
    i, 0.13
CCN1C/C(=C/c2sccc2C)c2nc3ccccc3c(C(=O)O)c2C1
    i, 0.32
C=CCOC(=O)C1=C(C)NC(=O)NC1c1cn(-c2ccccc2)nc1-c1cccs1 (stereo not drawn)
    i, -1.8

Whole records from above:
`Cn1c(=O)n(CC(N)=O)c2ccccc21` is entered as KCNQ2 inh: i; KCNQ2 inh baseline: -2.1
`CC(=O)c1cc(-c2nc3ccccc3n2C)n(C)c1` is entered as KCNQ2 inh: i; KCNQ2 inh baseline: -0.01

Following part.
Values run as follows: KCNQ2 inh, KCNQ2 inh baseline
O=C(COC(=O)C12CC3CC(CC(C3)C1)C2)Nc1ncc(Cl)cc1Cl
    i, 0.01
O=C(c1ccc(OC2CCN(C(=O)c3cccnc3)CC2)cc1)N1CCCCCC1
    i, -0.11
COc1ccc(CNC(=O)[C@@H](NC(=O)C2CCN(C(=O)[C@@H](N)CCSC)CC2)C(C)C)cc1
    i, 0.32
COC(=O)Cn1c2ccc(OC)cc2c2nc3ccccc3nc21
    -5.7*, 2.5*
S=c1sc2c(N3CCOCC3)ncnc2n1-c1ccccc1
    i, 0.03
Cc1nc(-c2c(C(=O)NNC(=O)Nc3c(C)cccc3C)noc2C)cs1
    i, 0.64
Cc1ccc2c(c1)N(CC(=O)NC1CCCC(C)C1C)C(=O)c1cccnc1O2 (stereo not drawn)
    i, -0.29
COc1ccc(C2=NOC(C(=O)N3CCCCCC3)C2)cc1OC (stereo not drawn)
    i, 0.11
COC(=O)c1ccc(CSc2nc(C(F)(F)F)c3c(c2C#N)CCC3)o1
    i, 0.01
